Screening results deposited in PubChem BioAssay by National Center for Advancing Translational Sciences (NCATS).
hNpr1 antagonist: antagonists of human natriuretic peptide receptor Npr1; P16066; HEK293 hNpr1 GloSensor cGMP, ANP-stimulated luminescence; Potency, µM (top dose mostly 46.3 µM), inactives show top-dose activity change, negative = inhibition, hits mostly inhibitors; 76,000 compounds, 1.6% hits; AID 1347048; active = well fitted inhibition curve with a large enough effect; inconclusive = small, poorly fitted or top-dose-only effect; inactive = no such curve, though single readings can be large or run the other way;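 note: nearly all actives have a fitted effect of over 60% in size; nearly all hits also lower the signal before the agonist is added; a reference antagonist and vehicle were the controls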
Target sequence (P16066 whole entry, looked up): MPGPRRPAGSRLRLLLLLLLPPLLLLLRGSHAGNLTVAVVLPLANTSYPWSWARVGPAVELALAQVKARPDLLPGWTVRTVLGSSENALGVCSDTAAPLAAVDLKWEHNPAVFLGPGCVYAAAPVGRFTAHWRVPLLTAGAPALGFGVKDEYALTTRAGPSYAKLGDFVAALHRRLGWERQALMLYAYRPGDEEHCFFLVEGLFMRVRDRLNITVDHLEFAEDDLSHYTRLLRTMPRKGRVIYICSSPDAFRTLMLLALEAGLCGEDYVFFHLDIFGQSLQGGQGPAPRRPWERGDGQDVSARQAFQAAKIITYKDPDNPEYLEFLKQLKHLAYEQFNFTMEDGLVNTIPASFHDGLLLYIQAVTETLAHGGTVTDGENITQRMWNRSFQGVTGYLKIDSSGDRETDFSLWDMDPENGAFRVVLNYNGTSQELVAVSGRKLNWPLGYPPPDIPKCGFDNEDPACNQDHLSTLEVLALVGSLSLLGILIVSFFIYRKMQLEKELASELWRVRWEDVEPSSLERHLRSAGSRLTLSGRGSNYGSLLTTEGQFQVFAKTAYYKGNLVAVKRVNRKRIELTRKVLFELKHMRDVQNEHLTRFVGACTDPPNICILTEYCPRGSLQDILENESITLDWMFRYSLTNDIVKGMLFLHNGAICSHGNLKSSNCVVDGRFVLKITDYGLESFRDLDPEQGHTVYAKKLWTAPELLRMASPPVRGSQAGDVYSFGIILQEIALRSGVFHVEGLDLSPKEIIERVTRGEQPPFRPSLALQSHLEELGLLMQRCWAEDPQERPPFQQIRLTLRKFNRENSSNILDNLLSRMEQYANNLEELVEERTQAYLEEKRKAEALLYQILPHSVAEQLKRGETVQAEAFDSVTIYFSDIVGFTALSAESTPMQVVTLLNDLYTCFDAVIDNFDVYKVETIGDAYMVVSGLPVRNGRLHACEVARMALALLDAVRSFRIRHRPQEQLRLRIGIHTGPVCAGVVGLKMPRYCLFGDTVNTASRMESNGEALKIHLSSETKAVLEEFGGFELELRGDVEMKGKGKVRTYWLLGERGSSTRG
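Compound pre-incubated 30 min at room temperature on GloSensor-loaded HEK293 cells stably carrying hNpr1 and the pGS-40F cGMP biosensor. Stimulation uses hNppA at 0.1 nM final; luminescence is taken at baseline and 20 min post-agonist.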
An asterisk follows results filed as active; ? = inconclusive; [ ] = dose if it differs, or a comment. % is set by controls: 0 for no effect and ±100 for the full control effect; potency is the fitted concentration of half-maximal effect. Some of the compounds tested (hit frequency here may not be typical).

mol	hNpr1 antagonist
O=C(NCC1CC1)c1nc2c(o1)CCN(CCCc1ccccc1)CC2	3%[70.6 µM]
CN(C)CCN1CC2(CCN(C(=O)CCCS(N)(=O)=O)CC2)OC1=O	0%
CC1=C[C@@H](CNC(=O)COc2ccccc2)[C@H](C(C)C)C[C@H]1CC(=O)N1CCN(C)CC1	-4%
CCN(CC1CCCN(CCc2cccc(OC)c2)C1)C(=O)c1cc(C)no1 (configuration not stated)	4%
O=C(NC[C@H]1OC[C@@H](NCc2ncc[nH]2)[C@@H]1O)Nc1ccccc1	0%[70.6 µM]
O=c1c2c(CO)c(-c3ccccc3)nn2ccn1Cc1cccc(C(F)(F)F)c1	?
CN(CC1CCOC1)C(=O)Cc1cccc(F)c1 (configuration not stated)	-2%
O=C(CCc1conc1-c1ccccc1)N1CCN(c2ccccc2Cl)CC1	-5%
O=C(NCc1ccccc1)N1CCN2C(=O)N(C3CCCCC3)C[C@H]2C1	9%[70.6 µM]
COc1cc(NC(=O)CC2CCCN(c3cn[nH]c(=O)c3)C2)cc(OC)c1 (configuration not stated)	2%

The list goes on:
mol	hNpr1 antagonist
Cc1ncccc1C(=O)N1CC(Oc2ccccc2-c2nc(-c3ccccc3)no2)C1	-4%
O=C(Cc1ccc2c(c1)OCO2)N1CCc2[nH]nc(-c3ccccc3F)c2C1	0%
Cc1c(C(=O)O)sc2ncnc(NCC3(O)CCCCC3)c12	-7%
CN(C)C[C@H]1C[C@@H](CO)CN(C(=O)c2ccccc2-c2ccc(F)cc2)C1	5%
CC(=O)NCC(=O)N1CC(F)(F)C[C@H]1c1nc(C2CC2)no1	-1%
COCCOCC(=O)N1C[C@@H](Oc2ccccc2)C[C@H]1C(=O)N1CCOCC1	0%
CC(C)C(=O)NCC1CN(Cc2ccccc2)C(=O)c2c(ccnc2-c2ccc(OCC(=O)O)cc2)O1 (configuration not stated)	5.6µM*
Cc1cc2cc(-c3c(C)noc3C)nc(NC3CCN(C)CC3)c2o1	4%[70.6 µM]
CN(C)C(=O)N1CCC(C(=O)N2CCOC(Cc3cccc4ccccc34)C2)CC1 (configuration not stated)	3%
COc1ccc(-c2ccc3nnc(CNC(=O)c4cccc(OC(F)(F)F)c4)n3n2)cc1	0%

Overlap with the part before: 2 compounds, followed by the next part.
mol	hNpr1 antagonist
CN(C)C(=O)N1CCC(C(=O)N2CCOC(Cc3cccc4ccccc34)C2)CC1 (configuration not stated)	3%
COc1ccc(-c2ccc3nnc(CNC(=O)c4cccc(OC(F)(F)F)c4)n3n2)cc1	0%
COc1ccc(C(=O)Nc2ncc(-c3cccc(N(C)C)c3)c3c2OCC3)cc1	?
CC(=O)Nc1ccc(CN2C[C@H](O)C[C@H]2c2nc(-c3ccc(OC(F)(F)F)cc3)no2)cc1	-26%
COc1cccc(CNC(=O)C2CCN(c3cc(C(F)(F)F)ncn3)CC2)c1	?
COc1ccc2[nH]c(C(=O)N3CCCCCNC(=O)[C@@H]4CCC[C@@H]43)cc2c1	1%
Cc1ccc(C(=O)N2CCC(c3nn(-c4ccccc4)c(=O)[nH]3)CC2)cc1	0%
COc1cccc(C(=O)N2CCC(c3nn(C)c4c3COCC4)CC2)c1	0%
COc1cccc(CC(=O)N2CCC([C@H]3[C@@H](OC)C(=O)N3C(C)C)CC2)c1	-1%
CC(C)c1nc2c(c(-c3ccc(O)cc3)n1)CN(CC1CCCCC1)CC2	-1%
CN(C)C(=O)CO[C@@H]1COCC[C@H]1NC(=O)c1cccc(-n2cccn2)c1	5%
COCCN1CCCCCC(O)c2cc(C(=O)NC3CCCCC3)ccc21 (configuration not stated)	-4%

Following part
mol	hNpr1 antagonist
COc1ccc(-c2cc(N3CCN(C(=O)c4ccc(OC)c(F)c4)CC3)n[nH]2)cc1	-21%
N#Cc1cccc(NC(=O)O[C@@H]2CO[C@H]3[C@@H]2OC[C@@H]3Nc2nccc(-c3ccccc3)n2)c1	?
O=c1n(-c2ccc([N+](=O)[O-])cc2)nc2n1CCN([S+](=O)([O-])c1cccc(C(F)(F)F)c1)C2	-13%
COCCC1(NS(C)(=O)=O)CCN(C(=O)C2(c3ccc(OC)cc3)CC2)CC1	-5%
CN1CCN(C)c2cnc(-c3ccc(C(=O)N(C)C)cc3)cc2C1	9%[70.6 µM]
COCCN[C@@H]1C[C@@H]2c3[nH]c4ccccc4c3C[C@@H](C(=O)OC)N2[C@H](c2ccc(Cl)c(F)c2)C1	?
CCn1nc(C)c(-c2nc(C3CCOC3)no2)c1C (configuration not stated)	3%
C=CCNC(=O)N1CC[C@H]2CC(=O)N(C3CC3)CC[C@H]2C1	-2%[70.6 µM]
COc1ccccc1C(=O)N1CCC2(CC1)OC(=O)N(Cc1ccccc1C#N)C2(C)c1ccccc1 (configuration not stated)	1%
Cc1cnc(CCNC(=O)c2n[nH]c(=O)c3ccccc23)n1C1CC1	2%

Later entries.
mol	hNpr1 antagonist
O=C(CN1C(=O)NC2(CCS(=O)(=O)CC2)C1=O)NCc1ccccc1Cl	4%
COc1cccc(CCn2ccnc2-c2cc3n(n2)CCCNC3)c1OC	-3%
O=C(COc1ccccc1)N1CCCC(c2nc(C3CCOCC3)no2)C1 (configuration not stated)	11%
O=C(c1ccc(N2CCCC(O)C2)nc1)N1CCC(CCc2ccccc2)CC1 (configuration not stated)	?
CC(C)NC(=O)N[C@H]1C[C@H]2C(=O)NC[C@@H](CCC(=O)NC3CC3)N2C1	2%[70.6 µM]
O=C(O)CN1CCC[C@]2(C(=O)O)CN(Cc3cccc(O)c3)CC[C@@H]12	0%
O=C(Nc1ccc(C2(C(=O)N3CCN(c4ccccn4)CC3)CCCCC2)cc1)C1CC1	-12%
CC(c1cccs1)N(C)CC1CCCCC1 (configuration not stated)	30%[70.6 µM]
COc1ccc(C(=O)NC2CCN(c3cc(-c4ccc(F)cc4)[nH]n3)CC2)c(OC)c1	-27%
O=C(Cn1ccn2nc(-c3ccc(F)cc3)c(CO)c2c1=O)N1CCC(Cc2ccccc2)CC1	-16%

(listing goes on)
mol	hNpr1 antagonist
CC(C)CNC(=O)N1CCC(Nc2cccnc2)C1 (configuration not stated)	-1%
CC(=O)N(C1CCOCC1)C1CCN(S(=O)(=O)c2ccccc2)CC1	-3%
O=C(CCc1nnn2c1CN(C(=O)c1ccccc1F)CC2)N1CCOCC1	0%
NC(=O)CNC(=O)C1=C[C@@H](NS(=O)(=O)c2cccc(C(F)(F)F)c2)[C@@H](O)[C@H](O)C1	-1%
CC(C)CNC(=O)N1CC(Oc2ccccc2-c2nc(-c3ccccc3)no2)C1	0%
CN(c1cc(=O)c2ccnc(-c3cccc(C(F)(F)F)c3)c2o1)C1CCOCC1	-1%[70.6 µM]
CC1(C)[C@H](Cc2cc(CO)on2)C[C@@H]1NS(=O)(=O)c1ccc(F)cc1	-2%[70.6 µM]
Cn1nc(C2CCN(C(=O)Cc3ccc(Cl)cc3)CC2)[nH]c1=O	3%
Cc1cc(C(F)(F)F)n(CC(C)CNc2ncncn2)n1 (configuration not stated)	-1%
O=[S+]([O-])(NCC1CN(Cc2ccc3c(c2)CCO3)CC12CN(c1ccccc1)C2)c1ccccc1 (configuration not stated)	-14%

(next part)
mol	hNpr1 antagonist
Cc1cn2nc(-c3nc(C4CCCN(C(=O)c5ccccc5F)C4)no3)cc2c(=O)[nH]1 (configuration not stated)	3%
COc1ccc(Cl)cc1S(=O)(=O)N1CCC2(CCCNC2)C1 (configuration not stated)	7%
CCOc1ccc(C(=O)NC2CCCN(c3cc(-c4ccccc4)[nH]n3)C2)cc1 (configuration not stated)	-17%
O=C(C1CCOCC1)N1CCC(c2noc(-c3ccccn3)n2)C1 (configuration not stated)	-3%
COc1ccc(CC(=O)N2[C@@H]3CC[C@H]2CC(NC(=O)c2ccc(F)cc2)C3)cc1OC (some centres not stated)	3%
c1coc(-c2ccnc3nc(C4CC4)nn23)c1	0%
COCCN1CC(CO)C2(CCN(Cc3cc(F)ccc3F)CC2)C1 (configuration not stated)	4%
O=C(O)CCC(=O)N[C@H]1CO[C@H]2[C@@H]1OC[C@@H]2n1nnnc1Oc1ccc2c(c1)OCO2	0%[70.6 µM]
Cc1ncnc(N2CCC(CO)(Cc3ccccc3C(F)(F)F)CC2)c1C	11µM*
COc1cc(OC)cc(-c2nn(-c3ccc(C)cc3C)c(OC(C)=O)c2-c2ccc(NC(C)=O)cc2)c1	-18%

Additional results:
mol	hNpr1 antagonist
Cn1ccc2c(C(=O)NCC3CCOCC3)nc(-c3cccc(N4CCOCC4)c3)cc21	0%[70.6 µM]
O=C(c1ccc2c(c1)CCCO2)N1CCCn2nc(C(O)C3CCC3)cc2C1 (configuration not stated)	-6%
COc1ccc(-c2nc(C(C)C)nc3c2CN(C(=O)c2ccccc2F)CC3)cc1	-5%
CCN(CCNC(=O)CC1=C2CCCCC2N(C)C1=O)Cc1ccccc1 (configuration not stated)	-10%
COc1ccc(C[C@H](NC(=O)C2=C[C@@H](NC(=O)Nc3ccc(C)cc3)[C@@H](O)[C@H](O)C2)C(N)=O)cc1	5%
COCC(=O)N(C1CCOCC1)C1CCN(C(=O)c2ccccc2OC(F)(F)F)CC1	-5%
COc1ccc(CNC[C@H]2O[C@H](Cc3cc(-c4ccc(OC)cc4)on3)CC[C@@H]2O)cc1	?
COc1ccc(CN2Cc3[nH]nc(-c4ccc(N5CCN(C)CC5)cc4)c3CC2=O)cc1	-3%[70.6 µM]
C[C@H](O)c1onc(-c2ccc(F)cc2)c1C(=O)N1CCCC1	-5%[70.6 µM]
CCOC(=O)c1[nH]ncc1C1CC(=O)Nc2c1cnn2Cc1cccnc1 (configuration not stated)	-2%

Next part
mol	hNpr1 antagonist
COc1ccccc1CN1CCNc2cnc(Oc3ccccc3)cc2C1	-14%[70.6 µM]
Cn1cccc1CN1CC(F)(F)C[C@H]1c1nnc(C2CC2)o1	2%
CN(C)c1ccc(C(=O)NC2CCN(c3cc(-c4ccc(Cl)cc4)[nH]n3)C2)cc1 (configuration not stated)	-22%
COc1ccc2c(c1)OCC(CNC(=O)c1cc(-c3ccncc3)n[nH]1)C2 (configuration not stated)	-9%
O=C(Nc1ccccc1)O[C@@H]1CO[C@H]2[C@@H]1OC[C@@H]2NC(=O)C1CC1	-12%[70.6 µM]
CC(=O)N1CCC(N2CC3CC(C2)[C@H]2CCCC(=O)N2C3)CC1 (some centres not stated)	-8%
O=C(Nc1ccc([C@@H](O)[C@H]2COCC(=O)N2Cc2ccc(F)cc2)cc1)C1CCC1	6%[70.6 µM]
O=C(CCC1CCN(C(=O)c2ccccc2F)CC1)Nc1cccc(Cl)c1	?
COCCN1CC(CO)C2(CCN(C(=O)Cc3cccnc3)CC2)C1 (configuration not stated)	1%
COc1cccc(C(=O)N2CCC3(CC2)N(C2CCCC2)C(=O)CS3=O)c1 (configuration not stated)	15%

Ordered by molar mass (high to low): some entries from above
mol	hNpr1 antagonist
N#Cc1cccc(NC(=O)O[C@@H]2CO[C@H]3[C@@H]2OC[C@@H]3Nc2nccc(-c3ccccc3)n2)c1	?
COc1cccc(CNC(=O)C2CCN(c3cc(C(F)(F)F)ncn3)CC2)c1	?
O=C(CCc1nnn2c1CN(C(=O)c1ccccc1F)CC2)N1CCOCC1	0%
CN(C)CCN1CC2(CCN(C(=O)CCCS(N)(=O)=O)CC2)OC1=O	0%
CC(=O)N1CCC(N2CC3CC(C2)[C@H]2CCCC(=O)N2C3)CC1 (some centres not stated)	-8%
Cn1cccc1CN1CC(F)(F)C[C@H]1c1nnc(C2CC2)o1	2%

Next results
mol	hNpr1 antagonist
CNC(=O)[C@@H](c1ccccc1F)N1CCC[C@H]1C(=O)N1CCCCC1	3%[70.6 µM]
CC(C)CC(=O)N1CCCC(Cc2nncn2C(C)C)C1 (configuration not stated)	-13%
CCc1ccccc1S(=O)(=O)N1CCC2(CC1)C(=O)N(CC)c1ccccc12	1%
CCCNC(=O)NCC(=O)N1CCCCCNC(=O)CC1c1ccccc1 (configuration not stated)	1%
COc1cncc(Nc2ncc(-c3cccc(N(C)C)c3)c3c2OCC3)c1	-30%[70.6 µM]
COc1ccc(C2=NOC(C(=O)NC(C)(C)C)C2)cc1 (configuration not stated)	-6%
OCC1CN(Cc2ccccc2)CC12CCN(Cc1ccncc1)CC2 (configuration not stated)	-6%
COc1ccc(-c2noc([C@@H]3CCCN3C(=O)Cc3ccccc3C)n2)cc1OC	0%
COc1ccc(CN[C@H]2C[C@H]3C(=O)NC[C@@H](CCC(=O)NCc4ccc(F)cc4)N3C2)cc1	6%
COc1cc(Cl)ccc1C(=O)N1CCN(c2cc(C(F)(F)F)nc(C)n2)CC1	-2%

Continuation.
mol	hNpr1 antagonist
CCN1CCC2(CCC1=O)CN(Cc1nc(C(=O)NC)no1)CCN2C (configuration not stated)	9%
Cc1ccc(S(=O)(=O)Cc2noc([C@@H]3C[C@@H](O)CN3Cc3ccc(C(F)(F)F)cc3)n2)cc1	4%
Cc1nc2scc(CC(=O)N3CCCC3)n2c(=O)c1-c1cc(C)n(-c2ccccc2F)n1	2%
CN(C)[C@@H]1CO[C@H](CNC(=O)CC(C)(C)C)[C@H]1O	3%[70.6 µM]
Cc1cccc(C(=O)N2CCC(Cc3ncc(C)n3C(C)C)C2)c1 (configuration not stated)	4%
O=C(CCn1ccn2nc3c(c2c1=O)CCCC3)Nc1ccc(F)c(Cl)c1	-2%
C[C@@H]1CN(C(=O)CCCc2ccccc2)C[C@@]1(O)C1CC1	-2%
